# Source: PubChem BioAssay
# MLL AF4-AF9 inh = MLL-AF4/AF9 protein interaction inhibition | inhibition, % at 10 µM | AlphaScreen, biotin-AF4 peptide binding to FLAG-AF9 | hit rate 0.47% among 350,000 | P42568;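 active means every replicate reaching a set inhibition limit, whatever the replicate mean, cut at about 25% in these data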;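 further: 0% = plate neutral control median and 100% = total signal loss; the record names both 10 and 1 µM as test concentration; the first replicate is given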
# Target sequence (P42568 whole entry, looked up): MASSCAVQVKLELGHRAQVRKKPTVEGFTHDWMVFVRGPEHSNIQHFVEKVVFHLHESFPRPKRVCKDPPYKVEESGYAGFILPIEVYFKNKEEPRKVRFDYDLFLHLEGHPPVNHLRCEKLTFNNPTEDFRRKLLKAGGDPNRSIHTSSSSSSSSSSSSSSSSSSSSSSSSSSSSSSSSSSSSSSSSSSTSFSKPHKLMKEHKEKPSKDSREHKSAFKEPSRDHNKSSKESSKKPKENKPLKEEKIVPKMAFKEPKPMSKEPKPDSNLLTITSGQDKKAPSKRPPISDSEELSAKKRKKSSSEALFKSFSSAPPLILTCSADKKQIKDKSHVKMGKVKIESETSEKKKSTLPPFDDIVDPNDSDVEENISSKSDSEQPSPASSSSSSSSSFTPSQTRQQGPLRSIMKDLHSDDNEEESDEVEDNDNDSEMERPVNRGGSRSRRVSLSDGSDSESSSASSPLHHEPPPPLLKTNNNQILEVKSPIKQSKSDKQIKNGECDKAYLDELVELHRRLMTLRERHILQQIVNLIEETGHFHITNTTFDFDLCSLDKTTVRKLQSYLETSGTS
# FGF22 binding = binders of recombinant human FGF22 by thermal shift; hit rate 1.5% among 340,000; calls only at 9.99 µM; Q9HCT0; SYPRO orange fluorescence; percent of sucrose octasulfate shift, DMSO zero; AID 651658;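 active means melting point raised past a set limit in the mean and every replicate; three in four hits are not shown here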
# Target sequence (Q9HCT0 whole entry, looked up): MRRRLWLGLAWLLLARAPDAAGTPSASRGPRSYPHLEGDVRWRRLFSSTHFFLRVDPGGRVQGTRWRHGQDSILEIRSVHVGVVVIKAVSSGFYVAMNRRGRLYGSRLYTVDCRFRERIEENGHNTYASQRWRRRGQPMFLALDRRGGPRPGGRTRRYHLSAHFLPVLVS
# rRNA inh HTS = inhibits bacterial ribosomal RNA function over humanized ribosomes. E. coli WT GFP vs humanized-ribosome RFP mutants, fluorescence, 24 h; active compounds read low; DMSO median 0, no signal -100. hit rate 1.6% among 350,000. GFP signal change (wild-type ribosome), % (no concentration beside the values);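 active means significant combined selectivity score with lowered wild-type GFP, culture density cut under 30%, mutant RFP and density less affected; inactive means any of these conditions unmet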; further: one replicate is shown; some compounds called inactive have numbers as strong as hits
# rRNA inh HTS OD600 = also measured in rRNA inh HTS; calls as there; OD600 change, %; measured here: OD600 growth;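 optical density of the mix in the first replicate; 0 = DMSO median and -100 = no signal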
# rRNA inh HTS RFP = recorded beside rRNA inh HTS, whose call it bears; RFP signal change, %; measured here: RFP humanized mutant strains;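 first replicate; 0 = DMSO median and -100 = no signal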
# Numbers without * were called inactive; i = inactive. Not all compounds are listed; rates above refer to the full screens.
SMILES,MLL AF4-AF9 inh,FGF22 binding,rRNA inh HTS,rRNA inh HTS OD600,rRNA inh HTS RFP
CCCC(=O)Nc1ccc2c(c1)C(=O)N(C)C[C@H](OC)[C@H](C)CN(Cc1ccc(-c3ccccn3)cc1)[C@@H](C)CO2,3.7,i,-4,-8,6.5
COc1cc(/C=C/c2ccc(/C=C/c3cc(OC)c(OC)c(OC)c3)cc2)cc(OC)c1OC,-6.8,i,18,9,1.8
C[C@H]1CN([C@@H](C)CO)C(=O)c2cccc(NC(=O)NC3CCCCC3)c2O[C@H]1CN(C)C(=O)Nc1ccc(C(F)(F)F)cc1,8.7,i,-13,-15,0.5
COCC(=O)N1[C@H](C#N)[C@H](c2ccccc2-c2ccccc2F)[C@@H]1CO,-1.4,i,1,3,0.8
N=c1ncn(C2OC(CO)C(O)C2O)c2nc(Br)[nH]c12 (centres undefined),-1.4,i,13,20,0.2
COc1ccc(S(=O)(=O)N[C@H]2CC[C@H](CCNC(=O)CN3CCOCC3)O[C@H]2CO)cc1,-1.1,i,1,5,0.1
C[C@H]1CCCCO[C@@H](CN(C)Cc2ccccc2)[C@@H](C)CN([C@@H](C)CO)C(=O)c2cc(NC(=O)NC3CCCCC3)ccc2O1,5.5,i,-5,-24,5.3
COc1cccc(-c2ccc3n(c2=O)C[C@@H]2[C@@H](CO)[C@H](C(=O)N4CCCCC4)N[C@H]32)c1,-2.8,i,0,3,0.3
Oc1ccccc1-c1cnc2cccnn12,0.9,i,-14,-10,-6.6
Cc1cc(C(=O)Nc2cccc3c2O[C@H](CN(C)C(=O)Nc2c(C)noc2C)[C@@H](C)CN([C@H](C)CO)C3=O)n(C)n1,-2.2,i,0,4,-0.5
CCC(=O)N(C)C[C@H]1Oc2cc(-c3ccccc3C)ccc2S(=O)(=O)N([C@H](C)CO)C[C@@H]1C,2.3,i,-7,-19,2.3
COc1ccc(CN(C)C[C@H]2Oc3ccc(N(C)C)cc3CC(=O)N([C@@H](C)CO)C[C@H]2C)cc1,3.8,i,0,-2,1.0
C[C@H](CO)N1C[C@H](C)[C@H](CN(C)Cc2cncnc2)Oc2ncc(-c3cncnc3)cc2C1=O,-5.8,i,5,-5,-0.7
COc1ccc(NC(=O)N(C)C[C@H]2Oc3c(NC(=O)Nc4cccc5ccccc45)cccc3C(=O)N([C@H](C)CO)C[C@H]2C)cc1,4.8,i,1,-5,-1.4
C[C@@H]1CN([C@H](C)CO)C(=O)c2cccc(N(C)C)c2O[C@H]1CN(C)Cc1ccc(Cl)c(Cl)c1,3.9,i,-4,-3,1.8
CCOC(=O)N1CCN(C(=O)C[C@@H]2C[C@@]3(C(=O)OC)CC(C)(C)CC=C3N(Cc3ccco3)C2=O)CC1,-7.4,i,-3,1,-2.3
CO[C@H]1CC[C@@H]2CCN(C)C(=O)CC3(CCCCC3)CN(C)C(=O)c3cc(C#N)ccc3OC[C@@H]1O2,4.7,i,-3,-7,-0.4
COC(=O)C(NC(=O)c1ccccc1)C(C)(C)SCc1ccccc1 (centres undefined),0.8,i,-3,-25,-5.9
COCC(=O)Nc1ccc2c(c1)C(=O)N(C)[C@@H]1CC[C@@H](CC(=O)NCCc3ccccc3)O[C@@H]1CO2,-1.1,i,2,6,-0.9
O=C(NCc1cccc(F)c1)[C@H]1[C@H](CO)[C@H]2Cn3c(cccc3=O)[C@@H]1N2C(=O)c1cnccn1,0.0,i,3,4,-2.2
CN(C)C(=O)C[C@@H]1CC[C@H]2[C@@H](COc3ccc(NC(=O)C4CCCCC4)cc3C(=O)N2C)O1,-2.5,i,0,-5,-1.9
CC(C)(O)C#Cc1ccc([C@H]2[C@@H](CO)N3CCCCN(Cc4ccccc4F)C[C@@H]23)cc1,6.8,i,2,5,0.2
CCCC(=O)Nc1ccc2c(c1)OC[C@H](C)N(S(=O)(=O)c1cn(C)cn1)C[C@H](C)[C@@H](OC)CN(C)C2=O,-3.9,i,4,13,0.1
CN(C)CCCNC(=O)C[C@H]1C=C[C@H](NS(=O)(=O)c2ccccc2)[C@@H](CO)O1,2.7,i,1,-3,-0.9

# Single records, as listed above. Order of screens: MLL AF4-AF9 inh	FGF22 binding	rRNA inh HTS	rRNA inh HTS OD600	rRNA inh HTS RFP
# C[C@H]1CN([C@@H](C)CO)C(=O)c2cccc(NC(=O)NC3CCCCC3)c2O[C@H]1CN(C)C(=O)Nc1ccc(C(F)(F)F)cc1 is listed as 8.7	i	-13	-15	0.5
# COc1cc(/C=C/c2ccc(/C=C/c3cc(OC)c(OC)c(OC)c3)cc2)cc(OC)c1OC is listed as -6.8	i	18	9	1.8
# C[C@H](CO)N1C[C@H](C)[C@H](CN(C)Cc2cncnc2)Oc2ncc(-c3cncnc3)cc2C1=O is listed as -5.8	i	5	-5	-0.7
# CN(C)C(=O)C[C@@H]1CC[C@H]2[C@@H](COc3ccc(NC(=O)C4CCCCC4)cc3C(=O)N2C)O1 is listed as -2.5	i	0	-5	-1.9

# Other structures:
SMILES,MLL AF4-AF9 inh,FGF22 binding,rRNA inh HTS,rRNA inh HTS OD600,rRNA inh HTS RFP
CS(=O)(=O)N1CC2(C1)[C@@H](c1ccccc1)[C@H](CO)N2Cc1ccccn1,-2.7,i,3,8,-0.3
COC(=O)c1cc2c(c3c4ccccc4n(S(=O)(=O)c4ccc(C)cc4)c13)C(=O)N(Cc1ccccc1)C2,-1.4,i,9,18,3.5
C[C@@H]1CCCCO[C@@H](CN(C)S(C)(=O)=O)[C@@H](C)CN([C@H](C)CO)C(=O)c2cc(NC(=O)Cc3ccccc3)ccc2O1,-1.3,i,4,1,-1.2
CNC[C@H]1OCCCC[C@@H](C)Oc2ccc(NC(=O)c3ccccc3)cc2C(=O)N([C@@H](C)CO)C[C@H]1C,-3.3,i,4,2,-3.0
OCCc1ccc(NCCc2cccs2)cc1,3.3,i,4,3,-0.9
O=C([C@@H]1N[C@@H]2c3ccc(-c4ccccc4F)c(=O)n3C[C@@H]2[C@H]1CO)N1CCCCC1,0.3,i,3,3,0.5
COc1cc(C(=O)Nc2ccc(C(=O)c3ccncc3)cc2)cc(OC)c1OC,-3.1,i,-2,-8,1.6
O=C(N[C@H]1CC[C@H](CCn2cc(-c3ccccn3)nn2)O[C@@H]1CO)c1ccccc1,-1.9,i,-1,1,0.2
C[C@H](CO)N1C[C@H](C)[C@@H](CN(C)C)Oc2ccc(N(C)C)cc2CC1=O,0.0,i,2,1,-0.7
C[C@H]1CN([C@@H](C)CO)C(=O)Cc2cc(NC(=O)Nc3cccc4ccccc34)ccc2O[C@H]1CN(C)C(=O)Nc1ccc2c(c1)OCO2,7.8,i,-2,-4,1.6
CCCNC(=O)N1CC2(CN(C(=O)C3CC3)C2)c2c([nH]c3cc(OC)ccc23)[C@H]1CO,0.8,i,1,3,-0.4
COCC(=O)Nc1ccc2c(c1)[C@@H]1C[C@@H](CC(=O)NCC3CC3)O[C@H](CO)[C@@H]1O2,-1.0,i,0,-16,2.1
O=C(NCc1ccccc1F)[C@@H]1N[C@@H]2c3ccc(-c4ccccc4F)c(=O)n3C[C@@H]2[C@H]1CO,-2.4,i,-2,1,-3.0
C[C@@H]1CN([C@@H](C)CO)C(=O)Cc2cc(NS(=O)(=O)c3cccs3)ccc2O[C@H]1CN(C)S(=O)(=O)c1ccc(F)cc1,-3.2,i,-4,-18,-2.4
C[C@@H]1CN([C@H](C)CO)S(=O)(=O)c2ccc(C#CC3(O)CCCC3)cc2O[C@H]1CN(C)C(=O)c1ccncc1,-1.4,i,-1,7,-5.6
O=C(C[C@H]1C=C[C@@H](NC(=O)Nc2ccc(C(F)(F)F)cc2)[C@H](CO)O1)NCc1ccccn1,-1.5,i,3,6,2.1
COc1cc(OC)cc(C2=Cc3ccc(OC)cc3C(CC(C)=O)N2c2ccc(C#CC3(O)CCCCC3)cc2)c1 (centres undefined),-0.1,i,-2,-8,3.0
CC(C)c1ccc(NC(=O)N2CCc3nc(NCc4cccc(Oc5ccccc5)c4)ncc3C2)cc1,1.5,i,-5,-5,3.5
CCC(=O)Nc1ccc2c(c1)C(=O)N(C)[C@@H]1CC[C@H](CC(=O)NCC3CC3)O[C@H]1CO2,0.1,i,4,3,-0.4
C[C@H](CO)N1C[C@H](C)[C@H](CN(C)C(=O)c2ccccn2)Oc2ncc(-c3cccc(F)c3)cc2C1=O,-2.0,i,4,3,-3.8
C[C@H](NC(=O)C[C@H]1CC[C@@H](NC(=O)Nc2ccc3c(c2)OCO3)[C@H](CO)O1)c1ccccc1,1.1,i,-3,-4,1.7
C[C@H]1CN([C@@H](C)CO)C(=O)Cc2cc(NS(=O)(=O)c3ccccc3)ccc2O[C@H]1CN(C)C,-6.8,i,2,2,0.4
CC1=CC(=O)[C@@H](O)[C@@H](c2ccccc2Br)N1C,-0.4,i,20,6,2.1
C[C@@H]1CN([C@H](C)CO)C(=O)Cc2cc(NC(=O)Cc3ccccc3)ccc2O[C@@H]1CN(C)C(=O)Nc1ccc2c(c1)OCO2,-1.9,i,0,-10,-1.2
O=C(C1CC1)N1C[C@@H]2[C@H](c3ccccc31)[C@@H](CO)N2S(=O)(=O)c1ccccc1,0.0,i,-2,-8,-0.2
O=C(OCc1ccccc1)N1C=CCC[C@@H]1c1c(Cl)cccc1Br,0.2,i,-9,-12,-2.4
O=C(NCc1ccccc1)[C@@H]1N[C@@H]2c3cccc(=O)n3C[C@@H]2[C@H]1CO,0.5,i,-3,-6,-3.7
CC(C)NC(=O)Nc1ccc2c(c1)C(=O)N([C@@H](C)CO)C[C@@H](C)[C@@H](CN(C)CC1CCCCC1)OCCCC[C@@H](C)O2,3.2,i,3,7,3.2
O=C(N[C@H]1CC[C@@H](CCNS(=O)(=O)c2ccccc2)O[C@H]1CO)c1cccc(F)c1,-1.1,i,0,6,-1.5
Cc1ccc(CNC(=O)c2[nH]c(C(F)(F)F)nc2-c2ccccc2)cc1,-1.9,i,-19,-46,-6.5
C[C@@H]1CCCCO[C@@H](CN(C)S(=O)(=O)c2ccccc2)[C@H](C)CN([C@@H](C)CO)C(=O)c2cc(NC(=O)NC3CCCCC3)ccc2O1,0.6,i,0,-1,-0.5
CCN1[C@@H]2c3ccc(-c4cccnc4)c(=O)n3C[C@H]1[C@H](CO)[C@H]2C(=O)NCc1ccccc1,1.8,i,-1,4,-1.8
COc1ccccc1NC(=O)CSc1n[nH]c(-c2ccco2)n1,-2.5,i,3,12,-0.2
CCCNC(=O)C1(C)CCCN(C(=O)c2cc(C)nn2C(C)(C)C)C1 (centres undefined),-6.1,i,8,8,-0.6
CC(C)CC#Cc1cnc2c(c1)C(=O)N([C@@H](C)CO)C[C@H](C)[C@H](CN(C)Cc1ccccn1)O2,-5.7,i,1,1,-1.2
COc1ccc(N2C(=O)c3ccccc3NC(=O)C2C(=O)Nc2ccc3c(c2)OCCO3)cc1 (centres undefined),0.6,i,22,18,3.2
COc1ccc(CN(C)C[C@H]2OCc3cnnn3CCCC(=O)N([C@@H](C)CO)C[C@H]2C)cc1,0.9,i,0,-2,2.3
C[C@H]1CN([C@@H](C)CO)C(=O)c2cccc(NS(=O)(=O)c3cn(C)cn3)c2O[C@@H]1CN(C)C(=O)NC1CCCCC1,-2.4,i,4,3,-0.7
O=C(Nc1ccccc1)N1CCCCN2[C@H](C1)[C@H](c1ccc(C#CC3CC3)cc1)[C@@H]2CO,1.8,i,5,1,1.8
COCC(=O)N(C)C[C@H]1Oc2ncc(C3=CCCCC3)cc2C(=O)N([C@@H](C)CO)C[C@@H]1C,-5.0,i,3,5,-2.7
COC(=O)C[C@H]1CC[C@@H](NC(=O)c2ccccc2)[C@H](CO)O1,-1.1,i,4,5,-2.2
C[C@H](CO)N1C[C@H](C)[C@@H](CN(C)S(=O)(=O)c2cccs2)Oc2c(NC(=O)c3nc4ccccc4s3)cccc2C1=O,-0.3,i,-7,-1,-0.1
N#CC1(Nc2ccc3c4c(cccc24)CC3)CCCCC1,-19,i,44,17,28
O=C([C@H]1[C@H](CO)[C@H]2Cn3c(cccc3=O)[C@H]2N1Cc1ccccc1Cl)N1CCCCC1,-1.9,i,0,-3,-3.0
CCCNC(=O)C[C@H]1C[C@H]2c3cc(NC(=O)CC4CC4)ccc3O[C@H]2[C@H](CO)O1,0.3,i,3,8,-5.1
CO[C@H]1CN(C)C(=O)c2cc(NC(=O)Nc3cc(F)ccc3F)ccc2OC[C@@H](C)NC[C@@H]1C,-1.3,i,-2,4,0.9
C[C@H]1CN([C@@H](C)CO)S(=O)(=O)c2ccc(-c3cccnc3)cc2O[C@@H]1CN(C)Cc1ccncc1,12,i,-7,-12,-1.4
